GLA inh pH 4.5 = blocks human alpha-galactosidase A at pH 4.5; purified enzyme, 4-MU-alpha-Gal fluorescence, pH 4.5; P06280; activity change, negative = inhibition, % at 105 µM; 230,000 tested, under 10 active; inconclusive = small, poorly fitted or top-dose-only inhibition, or a rising curve; inactive = flat fitted curve, though single readings scatter; no compound was filed as active;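 further: 0% = full activity with enzyme and -100% = basal without enzyme; dose as in the result columns while the protocol names 77 µM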
Target sequence (P06280 whole entry, looked up): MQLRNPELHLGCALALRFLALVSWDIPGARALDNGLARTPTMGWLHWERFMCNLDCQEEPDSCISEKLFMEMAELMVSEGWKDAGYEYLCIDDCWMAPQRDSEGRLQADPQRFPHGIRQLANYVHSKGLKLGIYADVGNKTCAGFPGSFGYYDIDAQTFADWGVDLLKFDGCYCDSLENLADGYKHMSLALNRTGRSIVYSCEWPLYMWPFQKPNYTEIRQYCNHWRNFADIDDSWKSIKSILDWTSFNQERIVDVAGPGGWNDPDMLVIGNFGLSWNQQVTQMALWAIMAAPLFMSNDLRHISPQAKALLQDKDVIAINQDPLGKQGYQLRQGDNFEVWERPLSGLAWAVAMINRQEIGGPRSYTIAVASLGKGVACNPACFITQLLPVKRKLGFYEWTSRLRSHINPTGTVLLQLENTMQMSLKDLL
miR-21 FLuc = raises the signal of a miR-21 reporter. HeLa miR-21 FLuc reporter, luciferase, 48 h. Potency, µM (titrated, usually from 38.3 µM), for the others: at the top dose reporter change, positive = more light. 340,000 tested, under 10 active. AID 2288; active = well fitted rising curve with a large enough effect; inconclusive = small, poorly fitted or top-dose-only effect; inactive = no such curve, though single readings can be large or run the other way;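 further: % of control where 0% means no effect; miR-21 action dims this reporter so a rising signal means less miR-21 action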
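HeLa cells stably expressing CMV-driven firefly luciferase with a downstream miR-21 binding sequence, endogenously expressing miR-21, were treated with titrations (up to about 40uM final) for 48 hours at 37 degree Celsius. Luciferase luminescence was read after lysis.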
Rango release inh = inhibition of RanGTP-driven Rango-importin beta dissociation; Biochemical FRET Rango-importin beta, RanGTP-induced dissociation; O95149+P62826; Potency, µM (doses to about 46.1 µM), for inactives: top-dose activity change, negative = inhibition; 340,000 tested, 0.071% active; active means falling FRET ratio curve, often poorly fitted, with flat reads before Ran was added; inconclusive means other falling curves, or compound fluorescence or quenching; inactive means flat or rising ratio curve;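 further: potency means the concentration at half of the fitted maximal effect; % of control where 0% means no effect; nearly all actives have a fitted effect of over 45% in size; -100% = wells without RanGTP and RCC1; the record marks most hits as doubtful in a second field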
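Two FRET readings bracket the reaction: one 5 min after compound meets Rango–importin beta, another 45 min after RanGTP-RCC1 (0.6 uM Ran, 0.2 uM RCC1, 2 mM GTP) is added. Only the second defines inhibition.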
Rango complex inh = prevents formation of the Rango-importin beta complex; 340,000 tested, 0.031% active; Potency, µM (series often up to 92.2 µM), for the others: at the highest dose inhibition of complex formation; Rango CFP/YFP FRET sensor + importin beta, 45 min; AID 540263; active = rising FRET ratio curve, often small or poorly fitted; inconclusive = mostly compound fluorescence or quenching in the first reads; inactive = flat curves in all reads;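 further: potency means the concentration at half of the fitted maximal effect; 0% = DMSO wells and 100% = buffer wells lacking importin beta; nearly all actives have a fitted effect of over 15% in size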
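Inhibition scored from the CFP 486 nm/YFP 530 nm FRET ratio 45 min after adding 0.125 microM importin beta to 50 nM Rango biosensor preincubated 5 min with compound (room temperature, PBS with DTT, Tween-20, BSA). No-importin wells as positive control.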
* = called active by the depositor; ? = inconclusive; . = no result given; & = joins results of further samples. This is a subset. The share of hits here may be higher or lower than overall.

Second line of a record – Rango complex inh | GLA inh pH 4.5 | Rango release inh | miR-21 FLuc
- COc1cc2c(cc1OC)C(c1cc([N+](=O)[O-])ccc1O)NCC2 (configuration not stated)
→ 1.0% | 3.5 | 5.7% | -6.0%
- COc1ccc2sc(-c3ccc(N(C)C)cc3)c(C#CC(C)(C)O)c2c1
→ ? | . | ? | .
- CN(C)Cc1c(C(=O)N/N=C/c2ccncc2)nnn1-c1nonc1N
→ -0.7% | . | 1.4% | -2.3%
- Cc1ccc(C)c(OCC(=O)OCC(=O)Nc2c(C)nn(-c3ccccc3)c2C)c1
→ -1.5% | . | -3.0% | .
- CC(=O)N/C(=C/c1ccc2c(c1)OCO2)C(=O)NC(Cc1ccccc1)C(=O)O (configuration not stated)
→ 1.1% | . | -14.8% | .
- CCOC(=O)c1sc2nccc(OC)c2c1N=CN(C)C
→ 0.4% | 8.6 | 9.9% | 2.0%
- CC(=O)Cn1nnc(-c2ccc(C(F)(F)F)cc2)n1
→ 0.6% | 0.9 | -2.5% | -38.8%
- CCN(C(=O)CN(C)Cc1c(F)cccc1Cl)c1c(N)n(Cc2ccccc2)c(=O)[nH]c1=O
→ 2.7% | 6.5 | 31.4% | -0.9%
- COc1ccc(S(=O)(=O)/N=C2/C=CC(=O)C(C)=C2C)cc1
→ -1.4% | -0.1 | 18.0% | -2.1%
- O=C1c2ccccc2S(=O)(=O)N1CCOc1ccc(F)cc1
→ ? | 3.7 | -4.9% | -29.9%
- Cc1oc(-c2ccc(F)cc2)cc1-c1nn2c(-c3ccoc3C)nnc2s1
→ -3.2% | 3.6 | -9.6% | -5.3%
- Cc1ccc(C)c(S(=O)(=O)NCc2ccc(C(=O)N3CCCCC3C)cc2)c1 (configuration not stated)
→ 1.9% | -1.9 | -1.7% | 8.7%
- CCCCOc1ccc(C(=O)OCC(=O)Nc2cc(C)c(C)cc2[N+](=O)[O-])cc1
→ 4.9% | 17.5 | -1.5% | 2.8%
- O=C(O)C1CC=CCC1C(=O)Nc1ccc2c(c1)CCC2 (configuration not stated)
→ -2.0% | . | 15.1% | -9.7%
- CCn1c(CNC(=O)c2ccco2)nnc1SCC(=O)Nc1ccccc1Cl
→ 3.3% | . | -0.4% | -2.2%
- CCNC(=O)COC(=O)c1cc(C)nc2ccccc12
→ -1.6% | 2.2 | -9.6% | 3.8%
- CCOc1ccc(N(CC(=O)NC2CCCC2)S(=O)(=O)c2ccccc2)cc1
→ 2.5% | . | 8.4% | -0.5%
- Cc1cccc(-n2nnc(C(=O)NCc3ccccn3)c2N)c1
→ -0.3% | 3.9 | -3.6% | -17.2%
- COc1ccc(Cl)cc1NC(=O)CN(C)C(=O)COc1ccccc1F
→ -4.0% | 8.7 | 0.0% | -5.1%
- N#C/C(=N\Nc1cccc(F)c1)C(=N)N1CCCCCC1
→ -2.9% | -3.8 | 10.7% | -56.3%
- O=C(NCC1CCCO1)c1nc2c(nnn2Cc2ccccc2Cl)c(=O)[nH]1 (configuration not stated)
→ -1.4% | 1.9 | -0.4% | -19.2%
- COCC(=O)Nc1ccc(OCc2ccccc2)cc1
→ 0.1% | 0.1 | 8.8% | -66.0%
- CCOC(=O)CC1OC(=O)c2cc3c(cc21)C(=O)OC3CC(=O)OCC (configuration not stated)
→ -0.9% | -3.9 | 21.5% | -2.5%
- Cc1nc(NC(=O)CCCC(=O)Nc2nc(C)c(C)s2)sc1C
→ -4.2% | -6.7 | 2.1% | -1.3%
- O=C(COC(=O)/C=C/c1ccc(OC(F)F)cc1)NC1CCCC1
→ -1.4% | . | -21.7% | .
- COc1cccc(C(=O)Nc2cc(S(=O)(=O)N3CCOCC3)ccc2N2CCOCC2)c1
→ -3.8% | . | -0.5% | .
- COc1ccccc1-c1ccc(SCC(=O)NCCc2ccccc2)nn1
→ -1.5% | -12.4 | -4.7% | 2.4%
- O=C(Nc1ccc(N2CCN(C(=O)c3ccccc3)CC2)c(Cl)c1)c1ncn[nH]1
→ 0.5% | 10.4 | 0.2% | 16.2%
- COc1ccc(NS(=O)(=O)c2ccc(NC(=O)c3ccc(Br)cc3)cc2)nn1
→ -1.8% | 9.4 | 19.6% | 3.1%
- Cc1ccc(NC(=O)C2CCC(=O)N2C(=O)OCc2ccccc2)cc1 (configuration not stated)
→ 1.8% | . | 2.2% | -1.3%

Second line of a record – Rango complex inh | GLA inh pH 4.5 | Rango release inh | miR-21 FLuc
- Cc1nn(Cc2cccc(C(=O)Nc3ccn(Cc4ccccc4)n3)c2)c(C)c1[N+](=O)[O-]
→ 0.6% | -6.8 | -2.8% | -10.5%
- CCCCn1c(-c2cccs2)nc2oc3ccccc3c(=O)c2c1=O
→ -0.1% | -8.0 | -0.3% | 0.5%
- Cc1ccccc1NC(=O)CSc1nnc(-c2ccco2)n1N
→ 3.0% | . | -3.5% | .
- O=C(COc1ccc(Cl)cc1)Nc1nc(-c2cccs2)cs1
→ -0.8% | -2.4 | 6.7% | -16.4%
- Cn1nccc1C(=O)N1CCCC(Nc2ccc(F)cc2)C1 (configuration not stated)
→ -0.8% | . | ? | 0.8%
- CCC(=O)NC(=S)Nc1ccc(NC(=O)c2ccc([N+](=O)[O-])cc2Cl)cc1
→ 0.6% | -7.5 | 5.5% | 10.3%
- CCOCCCNC(=O)CN1CCN(Cc2ccc(Cl)cc2)C1=O
→ -2.9% | . | 0.9% | -2.6%
- COc1ccc(C2C(=O)c3ccccc3C2=O)cc1OC
→ 4.5% | -5.5 | 14.0% | -18.3%
- CCC(C)N1CCN(C(=O)C2CCN(S(=O)(=O)c3c(C)noc3/C=C/c3ccco3)CC2)CC1 (configuration not stated)
→ -0.4% | . | -15.8% | 1.1%
- O=C(O)c1cccc(S(=O)(=O)N2CCCC(c3nc4c(nnn4Cc4ccccc4Cl)c(=O)[nH]3)C2)c1 (configuration not stated)
→ -0.6% | . | 1.3% | 5.8%
- C=CCN(CC=C)S(=O)(=O)c1ccc(NC(=S)NC(=O)/C=C/c2ccc(C)cc2)cc1
→ 0.4% | 2.9 | 3.0% | -1.6%
- CCOc1cc(N2CCOCC2)c(OCC)cc1NC(=O)Cc1ccccc1OC
→ 0.1% | -0.4 | -9.6% | -3.2%
- CSCc1cc(N(C)c2ccccc2)nc(-c2ccccc2)n1
→ -0.6% | . | 4.8% | -6.5%
- CCCn1c(SCC(=O)NC(C)c2ccccc2)n[nH]c1=O (configuration not stated)
→ 0.9% | 4.1 | -1.9% | -9.3%
- Cc1nn(-c2cc(C(F)(F)F)ccc2Cl)c2nc(C(Cl)(Cl)Cl)[nH]c(=O)c12
→ 2.8% | -28.0 | 1.4% | 9.7%
- Cc1ccc(NC(=O)C2CCCC2)c(Br)c1
→ 4.7% | . | 4.1% | .
- N#CCCN(C(=O)c1cc2c(s1)-c1ccccc1S(=O)(=O)C2)c1ccccc1
→ -1.9% | . | 11.7% | -0.6%
- COc1ccccc1NC(=O)c1cc(Cl)nnc1Cl
→ -5.3% | -0.9 | -8.1% | 28.8%
- COc1ccc2c(=O)c(N3C(=O)c4ccccc4C3=O)coc2c1
→ -0.2% | -6.8 | 3.0% | -8.0%
- CCOc1ccc(C(=O)NC(C(=O)NCCc2ccc(S(N)(=O)=O)cc2)C(C)C)cc1 (configuration not stated)
→ -0.5% | . | -10.6% | 0.2%
- O=C(Nc1ccc(S(=O)(=O)Nc2ncccn2)cc1)c1ccc(S(=O)(=O)N2CCCC2)cc1
→ 0.7% | -1.5 | 0.0% | -3.3%
- COc1ccc(-n2cccc2/C=C2\C(=N)N3N=C(c4ccco4)SC3=NC2=O)cc1
→ 3.8% | -1.7 | -21.9% | -1.9%
- COc1cc(/C=N/NC(=O)c2nnn(-c3nonc3N)c2C(C)C)ccc1O
→ 4.0% | . | 0.5% | 1.6%
- COc1ccccc1N1CCN(C(=O)c2ccc(CS(=O)(=O)c3ccccc3OC)o2)CC1
→ 0.4% | -3.7 | -0.3% | 5.2%
- CCOC(=O)c1c(/N=C/c2cccc([N+](=O)[O-])c2O)sc2c1CCC2
→ -1.3% | -5.9 | 3.6% | 1.8%
- COc1cc(C2Nc3cccc4cccc(c34)N2)ccc1O
→ -4.2% | . | -2.7% | -2.7%
- COc1ccc(N2C(=O)CCC(C(=O)N3CCN(c4ccccn4)CC3)C2c2ccc(F)cc2)cc1 (configuration not stated)
→ -2.7% | 0.3 | 8.1% | -3.3%
- CCOC(=O)c1cc(C(=O)NN)c(=O)[nH]c1C
→ 0.1% | -4.3 | 6.8% | -10.9%
- CCCCC1=CC2=C(c3ccco3)C(=O)C(C)(OC(=O)c3ccc(OC)cc3)C(=O)C2=CN1CC(C)C (configuration not stated)
→ ? | 6.2&-10.7 | ? | 4.6%
- O=S(=O)(/N=C(/Nc1ccc(F)cc1F)c1ccccc1)c1ccccc1
→ 5.1% | 2.3 | 2.7% | -17.7%

Second line of a record – Rango complex inh | GLA inh pH 4.5 | Rango release inh | miR-21 FLuc
- CCCCN(CC)CCCNC(=O)c1cc2c(=O)[nH]c3ccccc3c2s1
→ 2.8% | . | 3.7% | -3.5%&-18.5%
- Cc1cc(S(=O)(=O)N2CCN(c3ncccn3)CC2)ccc1-n1cnnn1
→ 4.4% | 5.4 | -1.5% | -1.0%
- COc1ccccc1NC(=O)c1nnn(CC(=O)Nc2cccc(SC)c2)c1N
→ -6.4% | 6.8 | 18.1% | -22.5%
- C/C(=N/NC(=O)CNS(=O)(=O)c1ccccc1)c1ccc(Br)cc1
→ 4.1% | . | 4.1% | -2.0%
- COc1ccccc1CNC(=O)c1ccc(NS(C)(=O)=O)cc1
→ 6.0% | 3.9 | 6.5% | -6.6%
- COCC(C)NC(=O)CSc1nc2ccccc2n1CCc1ccccc1 (configuration not stated)
→ 0.1% | -2.5 | -10.9% | -2.0%
- O=C1C=C(NS(=O)(=O)c2ccccc2)C(=O)c2ccccc21
→ -0.1% | . | -1.9% | .
- O=C(COc1ccc(-n2cnnn2)cc1)Nc1ccc(Br)cc1F
→ -0.6% | . | -7.7% | .
- COc1ccc2cc(C(c3nnnn3C3CCCCC3)N3CCCCCC3)c3nnnn3c2c1 (configuration not stated)
→ -1.1% | . | 5.9% | .
- CS(=O)(=O)c1ccc(C(=O)OCC(=O)N2CCCc3ccccc32)cc1
→ -2.5% | . | 14.9% | .
- Nc1ccc(C(=O)n2c3ccccc3c3ccccc32)cc1
→ 1.1% | 1.0 | 0.4% | ?
- Cc1ccc2nc(SCC(=O)Nc3nnc(SCC(N)=O)s3)[nH]c2c1
→ 2.4% | 3.3 | -9.3% | -3.8%
- CN(C)CCNC(=O)Cc1c(C(=O)O)n(C)c2ccccc12
→ . | 0.9 | . | 0.5%
- O=C(CSc1ccc2nnc(-c3cccc(F)c3)n2n1)N1CCCc2ccccc21
→ 0.7% | -7.2 | 6.3% | -0.9%
- Cn1nnnc1Sc1ncnc2scc(-c3ccc[nH]3)c12
→ ? | . | -14.8% | .
- CSc1nc(N)n2nc(C(C)(C)C)cc2n1
→ -0.1% | -6.7 | 15.1% | -32.4%
- O=C(Nc1nnc(SCc2ccc(F)cc2)s1)c1ccco1
→ 4.0% | 2.8 | -2.8% | -11.8%
- Oc1ccc(Cl)cc1CNC1CCCCC1
→ 6.8% | . | -4.4% | .
- COc1cc(OC)c(C2NC(=O)CCC2[N+](=O)[O-])cc1OC (configuration not stated)
→ -1.1% | . | -13.3% | -0.5%
- Cc1nc2ccccc2c(=O)n1NC(=O)c1cccnc1Cl
→ 0.4% | 5.8 | 0.0% | 0.6%
- COc1ccc(Br)cc1CNc1ccccc1
→ 5.4% | . | 1.2% | -21.9%
- CCCCCCOC(=O)c1ccc(NC(=O)c2cc(OC)c(OC)c(OC)c2Br)cc1
→ 3.4% | -11.7 | -3.0% | 7.3%
- Cc1ccc(S(=O)(=O)NC2CCCCC2)cc1C(=O)N1CCC(C(N)=O)CC1
→ 3.5% | . | -0.4% | .
- O=C(CCCC(=O)N(c1ccc2c(c1)OCCO2)C(C(=O)NC1CCCCC1)c1ccc(Cl)cc1)Nc1ccccn1 (configuration not stated)
→ 0.7% | -6.9 | -4.6% | -9.8%
- c1csc(-c2cn3c(n2)SCC3)c1
→ 0.5% | 1.6 | 1.6% | -28.4%
- Cc1cc(C)cc(N(CC(=O)NC2CCCC2)C(=O)CCC(=O)Nc2nc(C)cs2)c1
→ -1.2% | . | -1.8% | 2.1%
- COc1ccccc1NS(=O)(=O)c1cccc(C(=O)NCc2ccccn2)c1
→ 4.0% | . | 13.3% | 1.2%
